# D2 agonist = Beta-Arrestin HTS for Positive Allosteric Modulators of the Human D2 Dopamine Receptor: Agonists; D(2) dopamine receptor (Homo sapiens), P14416; DiscoveRx PathHunter D2 beta-arrestin, luminescence, 90 min; 100% = 57 uM dopamine signal; activation, % (no concentration beside the values); actives 0.084% (n = 360,000); in the data active = activation above about 40%; inconclusive = about 15% to 40%; inactive = below about 15%; note: compound concentration not given in the record; the text of the record calls up to 30% inactive
# Target sequence (P14416 whole entry, looked up): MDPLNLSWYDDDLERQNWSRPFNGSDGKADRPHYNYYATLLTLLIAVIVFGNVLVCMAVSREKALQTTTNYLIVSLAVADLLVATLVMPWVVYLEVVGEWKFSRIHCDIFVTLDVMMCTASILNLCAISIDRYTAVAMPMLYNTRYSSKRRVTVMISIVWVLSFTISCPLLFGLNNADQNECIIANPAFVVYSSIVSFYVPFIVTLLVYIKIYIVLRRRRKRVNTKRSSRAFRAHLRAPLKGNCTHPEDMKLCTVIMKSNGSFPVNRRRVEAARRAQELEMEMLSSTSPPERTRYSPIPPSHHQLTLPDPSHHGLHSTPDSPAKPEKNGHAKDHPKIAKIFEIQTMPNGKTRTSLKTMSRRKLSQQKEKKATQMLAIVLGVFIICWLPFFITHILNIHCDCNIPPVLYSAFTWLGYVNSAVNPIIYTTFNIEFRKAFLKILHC
#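 DiscoveRx PathHunter D2 beta-arrestin cells (2,100/well) attached overnight, then compound-stimulated 90 min at 37 C in HBSS/10 mM HEPES/0.1% Tween-20 buffer; beta-galactosidase complementation read by luminescence after 1 h at ambient temperature. Dopamine 57 uM final (EC100) as control.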
# Six1-Eya2 blk = qHTS Assay for Inhibitors of the Six1/Eya2 Interaction; Homeobox protein SIX1 (Homo sapiens) + Protein phosphatase EYA2 (Homo sapiens), …; AlphaScreen GST-Six1/His-Eya2 binding, biochemical; active compounds read low; control for the full effect not named in the record; activity change, % (no concentration beside the values); actives 0.56% (n = 360,000); AID 651725, 2012; in the data active = activity change below about -65%; inconclusive = about -30% to -65%; inactive = above about -30%; note: % is set by controls: 0 for no effect and ±100 for the full control effect
#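 AlphaScreen luminescence read after one hour at 37 °C in darkness. Pin-transferred compounds met GST-Six1 and His-Eya2 protein (5X stock 250 nM/500 nM) plus glutathione donor and Ni-chelate acceptor beads (5X, 50 ug/mL).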
# gsp antag = qHTS for Antagonists of gsp, the Etiologic Mutation Responsible for Fibrous Dysplasia/McCune-Albright Syndrome: qHTS; gsp-mutant cells, cAMP HTRF, 30 min; control for the full effect not named in the record; Potency, µM (top dose mostly 76.9 µM), inactives show at the top dose activity change, negative = inhibition, most hits filed as inhibitors; actives 0.4% (n = 340,000); AID 624288, 2012; active = falling curve of any shape with a large fitted effect; inconclusive = falling curve, mostly with a smaller effect; inactive = flat or rising curve; cell line not stated here;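 note: intracellular cAMP measured with PDE inhibitor Ro 20-1724 present during compound exposure; potency is the fitted concentration of half-maximal effect; % is set by controls: 0 for no effect and ±100 for the full control effect; nearly all actives have a fitted effect of over 65% in size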
#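 HTRF cAMP measurement after 30 min RT detection following 30 min, 37C compound treatment alongside […] (added as 300 uM solution) in G418-selected cells seeded at 2000/well and grown 16–24 h.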
# D2 PAM = Beta-Arrestin HTS for Positive Allosteric Modulators of the Human D2 Dopamine Receptor: Potentiators. DiscoveRx D2 beta-arrestin cells, luminescence, 90 min; 100% = 57 uM dopamine signal. potentiation, % (no concentration beside the values). D(2) dopamine receptor (Homo sapiens), P14416. actives 0.23% (n = 360,000); active = potentiation of 50% or more; inconclusive = 30% to 50%; inactive = 30% or less;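 note: compound concentration not given in the record; tested on top of an EC20 dose of dopamine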
#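 D2 cells co-treated with compound plus 50 nM dopamine (EC20) for 90 min at 37 deg C to detect potentiation. Beta-arrestin recruitment was read as enzyme-fragment luminescence after 1 h at ambient temperature. Full response was set by 57 uM dopamine.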
# CtBP-E1A inh = qHTS Assay for Inhibitors of the CtBP/E1A Interaction | AlphaScreen GST-E1A/His-CtBP binding, 1536-well; active compounds read low; control for the full effect not named in the record | activity change, % (no concentration beside the values) | actives 0.49% (n = 340,000); in the data active means activity change below about -65%; inconclusive means about -30% to -65%; inactive means above about -30%; note: % is set by controls: 0 for no effect and ±100 for the full control effect
#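 AlphaScreen with 125 nM GST-E1A and 125 nM His-CtBP (5X stocks) in Tris pH 8.0, 300 mM NaCl, BSA, Tween 20, TCEP. Compounds preincubated 2 h at 37 deg C, then glutathione donor/nickel acceptor beads added for 1 h at 37 deg C in dark.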
# gsp ag = qHTS for Agonist of gsp, the Etiologic Mutation Responsible for Fibrous Dysplasia/McCune-Albright Syndrome: qHTS; Potency, µM (top dose mostly 76.9 µM), for the others: at the highest dose activation (cAMP increase), actives largely listed as activators; actives 0.13% (n = 340,000); gsp mutant cells, cAMP HTRF, 30 min; control for the full effect not named in the record; active = well fitted activation curve with a large enough effect; inconclusive = small, poorly fitted or top-dose-only effect, or another doubt; inactive = no such curve, though single readings can be large or run the other way; cell line not stated here;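 note: phosphodiesterase inhibitor Ro 20-1724 added with compounds to block cAMP breakdown; potency is the fitted concentration of half-maximal effect; nearly all actives have a fitted effect of over 60% in size; about a fifth of the inactives were tested at one dose only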
#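 Cells in DMEM/10% FBS with G418 were pretreated with compounds in DMSO plus […] (300 uM stock) for 30 min at 37C. cAMP was measured by HTRF (cAMP-d2 plus anti-cAMP antibody-K) after 30 min at room temperature.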
# * hit, by the source's call; ? = inconclusive; nt = no result given; [ ] = another dose, or the depositor's remark. These rows are one share of the data (hit frequency here may not be typical).
SMILES,D2 agonist,Six1-Eya2 blk,gsp antag,D2 PAM,CtBP-E1A inh,gsp ag
Cn1c(O)c(C=Nc2ccccc2-c2ccccc2)c(=O)n(C)c1=O,-1.3,11,3%,-4,6,8%
Cc1nn(C)c(C)c1/C=C1/CC2C3CC=C4CC(O)CCC4(C)C3CCC2(C)C1=O (centres undefined),3.1,-11,5%,nt,-13,6%
COC(=O)C1=C(c2cc3ccccc3s2)C[C@@H]2CC[C@H]1N2C(=O)N1CCC(C)CC1,-5.5,-2,-21%,-22,-1,?
NP(=O)(Oc1ccccc1)Oc1ccccc1,5.9,6,4%,0,7,1%
N/C(=N\[N+](=O)[O-])N/N=C/c1ccc(O)cc1,2.0,-3,14%,-10,-18,?
CCOc1ccc(NC2=NCCCS2)cc1,-2.7,-1,1%,-5,-10,-12%[15.4 µM]
O=c1[nH]c2ccccc2o1,-9.5,6,7%,-22,-17,nt
COc1cc(OC)c(OC)cc1CNCCc1ccc(F)cc1,0.8,-5,-2%,-11,-10,-12%
CC(C)(C)C(=O)N1Cc2cc(N3CCOCC3)ccc2-n2nncc2C1,-0.9,8,nt,-4,2,nt
CN1CCN(/N=C/c2c(O)n(Cc3ccc(F)cc3)c(=O)[nH]c2=O)CC1,-3.0,0,3%,-18,nt,3%
OCCN1C2CCC1CC(O)(c1ccc(F)cc1)C2 (centres undefined),-2.2,6,8%,-39,-1,4%
Cc1cc(N=Nc2ccccc2C)ccc1N,-4.0,?,0%,-8,?,12%[15.4 µM]
O=C(O)CCn1cc(C=C2C(=O)NC(=O)NC2=O)c(-c2cc3ccccc3oc2=O)n1,1.3,13,nt,0,1,25%[15.4 µM]
O=C(Cc1ccccc1)OCn1nnc2ccccc2c1=O,-2.4,11,3%,-13,8,13%
CN1CCN(c2cc(N3CCNCC3)ccc2[N+](=O)[O-])CC1,-2.8,-5,1%,-26,1,?
CCCc1nnc(NC(=O)CCC(=O)N2CCN(CCOC(c3ccccc3)c3ccccc3)CC2)s1,-2.2,13,-7%,-34,18,0%
COc1ccc(N2C(=O)NC(=O)/C(=C/c3cccc(OC(=O)c4cccs4)c3)C2=O)cc1Cl,-3.8,-2,8%,-11,-12,0%
CCOC(=O)c1c(NC(NC(=O)CF)C(Cl)(Cl)Cl)sc2c1CCCC2 (centres undefined),-4.3,-13,-19%,-6,-14,-2%[15.4 µM]
Cc1csc(NC(=O)C(Cl)c2ccccc2)n1 (centres undefined) (tested in a mixture with another compound),-3.1,-8,9%,-9,?,-28%
Cc1cccc(-n2c(C)nc3ccccc3c2=O)c1C,-2.7,11,4%,-3,2,-6%[15.4 µM]
Cc1cccc([N+](=O)[O-])c1,-2.5,-1,10%,4,0,nt
Cc1cc(OCC(=O)OC(C)C)c2c3c(c(=O)oc2c1)CCCC3,-3.9,5,-1%,3,1,?
O=P(Oc1ccccc1)(Oc1ccccc1)C(O)c1ccccc1 (centres undefined),0.8,-3,14%,-6,1,28%
COc1ccc(-n2c(/C=C3\C(=O)Nc4ccccc43)nc3ccccc3c2=O)cc1,2.7,-2,4%,-5,9,-14%

# Arranged by heavy-atom count (highest first): part of the list above.
SMILES,D2 agonist,Six1-Eya2 blk,gsp antag,D2 PAM,CtBP-E1A inh,gsp ag
COc1ccc(-n2c(/C=C3\C(=O)Nc4ccccc43)nc3ccccc3c2=O)cc1,2.7,-2,4%,-5,9,-14%
CCOC(=O)c1c(NC(NC(=O)CF)C(Cl)(Cl)Cl)sc2c1CCCC2 (centres undefined),-4.3,-13,-19%,-6,-14,-2%[15.4 µM]
CN1CCN(c2cc(N3CCNCC3)ccc2[N+](=O)[O-])CC1,-2.8,-5,1%,-26,1,?

# (next part)
SMILES,D2 agonist,Six1-Eya2 blk,gsp antag,D2 PAM,CtBP-E1A inh,gsp ag
CCOC(=O)C1=C(C)OC(N)=C(C(=O)OCC)C12C(=O)Nc1ccc(Br)cc12 (centres undefined),3.4,-6,10%[15.4 µM],-6,5,0%
CC(C)N1CCN(Cc2cccc3c2OCO3)CC1CCO (centres undefined),1.4,-1,10%,-11,nt,-55%[inhibitor]
O=P(OCC(F)(F)C(F)F)(N1CCOCC1)N1CCOCC1,-0.7,0,4%,-11,2,-30%[inhibitor]
COC(=O)C1=C(c2ccc(F)cc2OCc2ccccc2)C[C@@H]2CC[C@H]1N2C(=O)NCc1cc(C)oc1C(F)(F)F,-2.2,-5,-8%,-21,-4,24%
CC1CC(C)CC(C)C(O)C(C#N)=CC=CCC(C2CCCC2C(=O)O)OC(=O)CC(O)C(C)C1 (centres undefined),-2.9,-12,-1%,-19,2,23%
Cc1csc(=O)n1CCC(=O)OCC(=O)N(C)c1c(N)n(Cc2ccccc2)c(=O)[nH]c1=O,1.1,-3,nt,12,-1,-52%[inhibitor]
CC(NCc1ccc(Cl)cc1Cl)C(O)c1ccccc1 (centres undefined),-4.9,1,0%,-25,-15,10%
O=c1[nH]c(=O)n(-c2cccc(Cl)c2)c(O)c1/C=N/c1ccccn1,-1.1,-5,-1%,0,2,-35%[inhibitor]
Cn1c(O)c(C=NCc2ccco2)c(=O)n(C)c1=O,-2.5,4,4%,-10,6,-51%[inhibitor]
COc1ccc2c(c1OC)C(=O)OC2C1c2cc3c(cc2CCN1C)OCO3 (centres undefined),3.1,-22,-4%,-9,-2,-10%[15.4 µM]
Cc1cc(N2CCN(C)CC2)nc2ccccc12,-2.1,20,6%,-14,17,-5%
COC(=O)C1=C(c2ccc(C(C)=O)cc2)C[C@@H]2CC[C@H]1N2C(=O)N1CCOCC1,-0.8,11,6%,-8,1,-8%

# Another view of five compounds above:
# Below each compound – D2 agonist, Six1-Eya2 blk, gsp antag, D2 PAM, CtBP-E1A inh, gsp ag
O=c1[nH]c(=O)n(-c2cccc(Cl)c2)c(O)c1/C=N/c1ccccn1
 : -1.1, -5, -1%, 0, 2, -35%[inhibitor]
Cc1cc(N2CCN(C)CC2)nc2ccccc12
 : -2.1, 20, 6%, -14, 17, -5%
CCOC(=O)C1=C(C)OC(N)=C(C(=O)OCC)C12C(=O)Nc1ccc(Br)cc12 (centres undefined)
 : 3.4, -6, 10%[15.4 µM], -6, 5, 0%
O=P(OCC(F)(F)C(F)F)(N1CCOCC1)N1CCOCC1
 : -0.7, 0, 4%, -11, 2, -30%[inhibitor]
CC(NCc1ccc(Cl)cc1Cl)C(O)c1ccccc1 (centres undefined)
 : -4.9, 1, 0%, -25, -15, 10%

# Following part.
SMILES,D2 agonist,Six1-Eya2 blk,gsp antag,D2 PAM,CtBP-E1A inh,gsp ag
Cc1ccc(NC(=O)N2CC2)cc1NC(=O)N1CC1,4.8,5,1%,-1,2,-5%
O=C1C2CCN(CC2)C1Cc1ccccc1O (centres undefined),-1.2,0,11%,-16,1,?
C[C@H](CO)N1C[C@H](C)[C@H](CN(C)C(=O)N[C@H](C)c2ccccc2)OCc2ccccc2-c2c(n(C)c3ccccc23)C1=O,-7.0,-5,nt,-1,-6,-34%[inhibitor]
C#C[C@]1(O)CC[C@H]2[C@@H]3[C@H](O)C[C@H]4C[C@@H](O)CC[C@]4(C)[C@H]3CC[C@@]21C,-0.1,-8,nt,-7,7,-79%[inhibitor]
O=C(Cc1cc(=O)[nH][nH]1)N/N=C/c1cccc2ccccc12,-0.4,-1,-8%,-4,23,15%
CC(C)COC(=O)N1Cc2ccccc2-n2nncc2C1,-1.6,0,nt,-3,-1,-7%
Cc1ccc(C(O)P(=O)(Oc2ccccc2)Oc2ccccc2)cc1 (centres undefined),-0.3,-21,13%,0,0,?
C=C(c1ccccc1)P(=O)(O)O,-2.7,-6,10%,-22,-3,14%
Cc1cc(C(=O)N2CCC3(CC2)OCCO3)no1,-4.2,2,7%,-8,4,15%
O=C(CN1CCN(Cc2cccc(Cl)c2)C1=O)N1CCC2(CC1)OCCO2,-1.6,1,11%,19,-8,5%
COc1cccc(C(=O)C2CCCN(Cc3ccc(F)cc3)C2)c1 (centres undefined),7.2,-3,-2%,-26,-4,-65%[inhibitor]
Brc1nc(-c2ccccc2)nc(-c2ccccc2)c1Br,-4.0,1,-2%,-7,11,?
Cc1cc(OCC(=O)NC(Cc2ccc(Cl)cc2)C(=O)O)c2c3c(c(=O)oc2c1)CCC3 (centres undefined),-2.9,-18,-2%,-13,-7,nt
C=CCOC(=O)C1=C(C)OC(N)=C(C(=O)OCC)C12C(=O)N(CC(N)=O)c1ccccc12 (centres undefined),3.7,1,3%,-9,6,5%
CCOc1c(Cl)cc(CNC(C)C(O)c2ccccc2)cc1OC (centres undefined),-3.3,6,12%,-22,nt,-7%
CCOC(=O)c1c(C)n(COCCO)c2ccc(O)cc12,0.2,-7,0%,-9,-6,-83%[inhibitor]
Cc1ccsc1C(=O)C1CCCN(CCO)C1 (centres undefined),1.8,2,-5%,-14,6,-1%
COc1ccccc1-n1c(CNCC2CCCO2)nc2ccccc2c1=O (centres undefined),-1.8,-4,8%,-8,-10,1%[15.4 µM]
C/C=C1\NC(=O)[C@H](C)NC(=O)[C@@H](NC(=O)[C@H](Cc2ccc(O)cc2)NC(=O)[C@@H](NC(=O)/C(C)=C/C)C(C)C)[C@@H](C)OC(=O)[C@H](CCCc2ccc(O)cc2)NC(=O)[C@@H](CCC(=O)O)NC1=O,-5.2,1,nt,-7,1,nt
O=[N+]([O-])c1ccc(Nc2ccccc2)cc1,-1.9,4,-3%,-4,-7,-25%
CCCOC(=O)C1C2c3ccccc3C(c3ccccc32)C1C(=O)O (centres undefined),0.8,-2,7%,-3,-1,0%[15.4 µM]

# Compound activity: PubChem BioAssay, National Center for Advancing Translational Sciences (NCATS)
